2A StopGo – High Throughput Screening for Foot and Mouth Disease Virus Antivirals; Potency, µM (highest dose often 57.9 µM), for the others: top-dose signal change, negative = less light; actives 1.2% (n = 410,000); AID 1159524, 2015; human cells with a luciferase reporter of 2A StopGo recoding; control for the full effect not named in the record; active = well fitted falling curve with a large enough effect; inconclusive = small, poorly fitted or top-dose-only effect; inactive = no such curve, though single readings can be large or run the other way; tested in HEK293T cells; also: % is scaled to controls: 0 for no effect and ±100 for the full control effect; nearly all actives have a fitted effect of over 45% in size; luciferase light after 4 h
Cruzain inh noDet – qHTS Assay for Promiscuous and Specific Inhibitors of Cruzain (without detergent) | Cruzipain (Trypanosoma cruzi), P25779 | purified cruzain, Z-FR-AMC fluorescence, no detergent | Potency, µM, inactives show max response, negative = inhibition, hits mostly inhibitors | actives 2.3% (n = 200,000);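 also: plate controls were enzyme without inhibitor for no effect and buffer without enzyme for full effect; nearly all actives have a fitted effect of over 40% in size; top concentration of the series not given in the record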
Target sequence (P25779 123-467 limits assumed): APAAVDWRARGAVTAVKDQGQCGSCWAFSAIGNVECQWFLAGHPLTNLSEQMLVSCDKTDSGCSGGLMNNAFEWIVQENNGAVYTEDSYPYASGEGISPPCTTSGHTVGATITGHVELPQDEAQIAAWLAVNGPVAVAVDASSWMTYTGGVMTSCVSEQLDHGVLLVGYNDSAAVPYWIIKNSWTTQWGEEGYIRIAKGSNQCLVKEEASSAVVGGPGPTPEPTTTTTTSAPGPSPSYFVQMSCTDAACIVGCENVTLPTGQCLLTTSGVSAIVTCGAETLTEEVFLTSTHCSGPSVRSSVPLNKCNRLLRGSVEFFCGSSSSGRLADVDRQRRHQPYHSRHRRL
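Purified cruzain at 1.5 nM, pre-incubated 15 min with compound at room temperature in 100 mM sodium acetate pH 5.5, 5 mM DTT, 0.00005% Triton X-100. Reaction started with 2 uM Z-FR-AMC; AMC fluorescence increase over 60 s gives rate.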
Cruzain inh Det – qHTS Assay for Promiscuous and Specific Inhibitors of Cruzain (with detergent); Cruzipain (Trypanosoma cruzi), P25779; actives 0.43% (n = 200,000); Potency, µM, without a hit: max response, negative = inhibition, usual class: inhibitors; AID 1478, 2009; purified cruzain, Z-FR-AMC fluorescence, 0.01% Triton;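 also: plate controls were neutral wells for no effect and buffer without enzyme for full effect; nearly all actives have a fitted effect of over 40% in size; top concentration of the series not given in the record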
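Cysteine protease activity tested under reducing, mildly acidic conditions (100 mM sodium acetate pH 5.5, 5 mM DTT) plus 0.01% Triton X-100. Cruzain 1.5 nM; substrate Z-FR-AMC 2 uM; 15 min compound preincubation at room temperature.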
Lassa entry inh – qHTS for Inhibitors of binding or entry into cells for Lassa Virus | Lassa virus pseudotype entry inhibition, cell reporter; control for the full effect not named in the record | Potency, µM (highest dose often 37.9 µM), for inactives: at the highest dose activity change, negative = inhibition, actives largely listed as inhibitors | actives 1.2% (n = 300,000) | AID 540256, 2011; active means well fitted inhibition curve with a large enough effect; inconclusive means small, poorly fitted or top-dose-only effect, or effect the other way; inactive means flat fitted curve, though single readings scatter; tested in HEK293 cells; also: % is scaled to controls: 0 for no effect and ±100 for the full control effect; nearly all actives have a fitted effect of over 50% in size; luciferase read-out
NS1 function inh – qHTS Assay for Inhibitors of Influenza NS1 Protein Function | AID 2326, 2010 | actives 0.4% (n = 270,000) | Potency, µM (series often up to 46.1 µM), inactives show at the top dose activity, positive = more growth | S. cerevisiae slowed by influenza A NS1, growth recovery by OD600; active means well fitted rising curve with a large enough effect; inconclusive means small, poorly fitted or top-dose-only effect; inactive means no such curve, though single readings can be large or run the other way; also: nearly all actives have a fitted effect of over 50% in size
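S. cerevisiae expressing influenza A NS1, grown in glucose, washed, then diluted 1:100 into pH 6.0 -URA galactose medium with 23 nl compound. Growth recovery read as OD600; NS1-free strain serves as control.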
RE007 growth inh – qHTS Assay for Inhibitors of the HIV-1 protein Vpr; S. pombe RE007 Vpr strain, BacTiter-Glo ATP luminescence, 24 h; control for the full effect not named in the record; Potency, µM (top dose mostly 92.2 µM), inactives show at the top dose activity change, negative = less growth; actives 0.21% (n = 360,000); active = well fitted falling curve with a large enough effect; inconclusive = small, poorly fitted or top-dose-only effect; inactive = no such curve, though single readings can be large or run the other way;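 also: % is scaled to controls: 0 for no effect and ±100 for the full control effect; nearly all actives have a fitted effect of over 50% in size; the assay follows cell death caused by Vpr and the record does not say whether a fall means rescue or toxicity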
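Fission yeast strain RE007, carrying one chromosomally integrated HIV-1 vpr copy, was seeded at OD 0.01 in PMG+AL medium with 23 nL pinned compound. After 24 h at 30 °C and 99% humidity, viability was read by BacTiter-Glo luminescence.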
MARV entry inh – qHTS for inhibitors of binding or entry into cells for Marburg Virus. Marburg virus pseudotyped entry inhibition, cell reporter; control for the full effect not named in the record; about a third of the inactives were read at about 46 µM. Potency, µM (highest dose often 37.8 µM), for inactives: at the highest dose activity change, negative = inhibition, most hits filed as inhibitors. actives 1.8% (n = 300,000). AID 540276, 2011; active = well fitted inhibition curve with a large enough effect; inconclusive = small, poorly fitted or top-dose-only effect, or effect the other way; inactive = flat fitted curve, though single readings scatter; tested in HEK293 cells; about a fifth of its hits are not listed in these tables; also: % is scaled to controls: 0 for no effect and ±100 for the full control effect; luciferase read-out
SARS PLpro yeast – qHTS of Yeast-based Assay for SARS-CoV PLP; S. cerevisiae expressing SARS-CoV PLpro, growth rescue; control for the full effect not named in the record; Potency, µM (doses to about 32.9 µM), inactives show top-dose activity, positive = growth rescue; actives 0.19% (n = 330,000); AID 485353, 2010; active means well fitted rising curve with a large enough effect; inconclusive means small, poorly fitted or top-dose-only effect; inactive means no such curve, though single readings can be large or run the other way; also: 0% is about no effect; nearly all actives have a fitted effect of over 55% in size; growth read by luminescence after 48 h
Starred values were filed as active, the others as inactive; ? = inconclusive; / = not tested or not shown; & = joins results of further samples; [ ] = another dose, or the depositor's remark. Unless noted, calls follow the shape of the dose curve; as a rule, active = well fitted curve in the direction sought with a large enough effect; inconclusive = small, poorly fitted or top-dose-only effect, or another doubt; inactive = no such curve, though single readings can be large; an effect the other way counts as inactive or inconclusive. Potency is read from the fitted curve at half-maximal effect. Compounds were not picked by outcome. About 4.7% of those tested had a hit in this group.

The line under a structure holds: 2A StopGo	Cruzain inh noDet	Cruzain inh Det	Lassa entry inh	NS1 function inh	RE007 growth inh	MARV entry inh	SARS PLpro yeast
> COc1ccc(OC)c(S(=O)(=O)N(C)CC(=O)Nc2cc(Cl)ccc2OC)c1
 : ?	3%	-4.7%	-2%	-40%	-3%	-24%[46.1 µM]	-14%
> CCOC(=O)c1ccc(NC(=O)NCc2ccncc2)cc1
 : -4%	12%	1.6%	3%	?	-12%	0%	-1%
> COc1ccc(C2N=C(N)Nc3nc4ccccc4n32)cc1 (stereo unspecified)
 : -8%	-7%	-2.5%	-33%[46.1 µM]	/	/	/	/
> O=C(/C=C/Nc1ccc(Oc2ccccc2Cl)cc1)c1ccco1
 : 13%	/	/	?	-2%	-11%	?	-3%
> C=CCN(Cc1nc(-c2ccccc2)no1)C(=O)c1ccc2c(c1)OCO2
 : 4%	/	/	-7%[46.1 µM]	-9%	17%	?	15%
> CC1CC(C)CN(C(=S)Nc2ccc(OC(F)F)cc2)C1 (stereo unspecified)
 : 42%[activator]	-6%	-4.4%	?	-10%	7%	0%	14%
> CC1CN(S(=O)(=O)c2cccc(C(=O)N=c3sccn3C)c2)CC(C)O1 (stereo unspecified)
 : -2%	/	/	?	/	-5%	?	3%
> Cc1ccc(C)n1-c1nnc(N2CCC(C(=O)Nc3ccccc3Br)CC2)s1
 : ?	9%	-5.6%	-2%[46.1 µM]	/	/	4%[46.1 µM]	/
> O=C(c1ccccc1-c1ccccc1)N1CCCC1
 : 1%	1%	0.3%	21%	1%	-6%	1%	-3%
> CCOC(=O)C1CCN(C(=O)c2cc3cc(C)ccc3[nH]2)CC1
 : 23%	/	/	/	-5%	-2%	/	-1%
> CCCCNC(=O)c1ccc(CS(=O)(=O)c2ccc(C)cc2)o1
 : -10%	/	/	16µM*	-5%	4%	?	0%
> Cn1cccc1CC(=O)N/N=C/c1cccc2ccccc12
 : 18%	-8%	-3.5%	6%	20%	4%	5%[46.1 µM]	-4%
> CCOC(=O)c1[nH]c2ccccc2c1NC(=S)Nc1ccccc1
 : 7%	-1%	-3.9%	17%	9%	9%	?	-8%
> Cc1ccc(S(=O)(=O)N(C)/N=C/C=C/c2ccccc2)cc1
 : -8%	6%	-3.8%	-5%	1%	-10%	17%	8%
> COc1ccc(CN2CCN(CC=C(C)C)C(CCO)C2)cc1Cn1cncn1 (stereo unspecified)
 : -3%	/	/	-1%	0%	4%	?	-2%
> CCN(CC)CCN(C(=O)c1ccc(C(=O)c2ccccc2)cc1)c1nc2cc3c(cc2s1)OCO3
 : -29%	/	/	21%[46.1 µM]	-51%	-6%	-13%[46.1 µM]	-1%
> Cn1cc(S(=O)(=O)N2CCCCCC2)cc1C(=O)Nc1ccccc1F
 : -12%	-4%	-4.3%	0%[46.1 µM]	/	/	/	/
> CCc1ccccc1NC(=O)CN(c1ccccc1)S(=O)(=O)c1ccsc1C(=O)OC
 : -22%	11%	5.3%	?	/	/	/	/
> O=C(CSCC(=O)N1CCOCC1)Nc1nc(-c2ccc3c(c2)OCO3)cs1
 : 16%	-8%	-5.0%	/	0%	2%	/	0%
> O=C(Cn1nc(Cc2cccnc2)c2ccccc2c1=O)N1CCN(C(=O)c2ccco2)CC1
 : -24%	5%	-1.4%	/	2%	-5%	/	-12%
> Cc1cccc(C)c1-n1c(C)cc(/C=N\NC(=O)CC(=O)NC2CCCCC2)c1C
 : -13%	8%	-9.9%	?	-10%	7%	0%	11%
> Cc1ccccc1-n1c(SCC(=O)N2CCN(c3ccccc3)CC2)nnc1-c1ccncc1
 : 0%	8%	-3.8%	-15%	-15%	14%	?	-7%
> COc1cccc(SCC(=O)N2CCN(c3ccccc3)CC2)c1
 : -8%	/	/	1%[46.1 µM]	-41%	-5%	-4%[46.1 µM]	0%
> CCCCOc1ccc(N2C(=O)C(C)CNC2=S)cc1 (stereo unspecified)
 : 3%	/	/	0%[46.1 µM]	/	24%	-2%	/
> Cc1ccc(NC(=O)c2cnc(SCC(=O)c3ccccc3)n(C)c2=O)cc1
 : -1%	/	/	28%	/	-9%	9%	0%
> CCOC(=O)CCCc1c[nH]c2ccccc12
 : 22%	-7%	3.2%	4%	-28%	-6%	-18%	-12%
> CCn1cc(C(=O)NCCCN2CCC(C)CC2)c(=O)c2cc(S(=O)(=O)N3CCOCC3)ccc21
 : 14%	/	/	/	1%	-7%	/	-1%
> COC(=O)c1ccc(N2CCN(c3ccccc3)CC2)c(NC(=O)C2CC2)c1
 : 0%	13%	-0.1%	-3%	24%	10%	0%	-13%
> CCc1nc2ccccc2n(CCOCCn2c(=O)c(CC)nc3ccccc32)c1=O
 : 8%	8%	1.0%	-4%	7%	4%	?	6%
> Cc1ccc(C)c(N2CCN(C(c3ccccc3)c3nnc(-c4ccccc4)o3)CC2)c1 (stereo unspecified)
 : -11%	-13%	-1.1%	?	/	/	?	/
> CSc1ccc(-c2nnn(Cc3ccccn3)n2)cc1
 : 11%	-12%	-1.0%	-21%	-60%	-17%	?	2%
> CCn1c(-c2ccccc2)c(C(=O)O)c2ccccc21
 : -17%	-4%	9.8%	4%	-1%	-1%	-8%[46.1 µM]	2%
> CCCn1c2ccccc2c2nnc(SCC(=O)OCC)nc21
 : 0%	-11%	-1.6%	-5%	-11%	6%	0%[46.1 µM]	5%
> CN(CC(=O)Nc1ccc(F)cc1)CC(=O)N1CCc2ccccc21
 : 1%	/	/	10%	/	5%	-2%[46.1 µM]	0%
> COc1ccc(C(=O)N2CCN(S(=O)(=O)c3ccc(F)cc3)CC2)cc1OC
 : -1%	/	/	/	-4%	10%	/	0%
> Nn1c(COc2ccccc2)nnc1SCC(=O)O
 : 27%	-1%	-2.1%	-11%	0%	3%	1%	7%
> O=C(O)C1CC=CCC1C(=O)Nc1cccc(Cl)c1Cl (stereo unspecified)
 : /	-9%	0.0%	/	-1%	/	/	27%
> Cc1cccc(-c2nc(CCNC(=O)Cc3ccccc3)cs2)c1
 : -9%	-5%	-6.9%	8%[46.1 µM]	/	/	/	/
> Cc1nn(Cc2c(Cl)cccc2Cl)c(Cl)c1C(=O)O
 : 15%	/	/	/	17%	5%	/	-2%
> COc1ccccc1-c1noc(-c2ccc(NCc3ccco3)c([N+](=O)[O-])c2)n1
 : 22%	7%	-1.7%	5%[46.1 µM]	/	/	20%[46.1 µM]	/
> C=CCn1c(Cc2ccc(OC)cc2)nnc1SCC(=O)c1cccc([N+](=O)[O-])c1
 : /	8%	2.0%	6%	6%	6%	-12%	-7%
> O=C(C(Cl)c1ccccc1)N1CCCC1 (stereo unspecified)
 : ?	/	/	/	21%	-11%	?	18%
> CCOc1ccc(Cn2c(=O)oc3ccccc32)cc1
 : -9%&2%	15%	-3.3%	9%[46.1 µM]	8%	15%	1%[46.1 µM]	1%
> O=C(CSc1nnnn1Cc1ccccc1)NCC(=O)c1ccccc1
 : /	3%	-2.7%	-17%	4%	2%	24%	2%
> COc1cc(O)c(C(CCN2CCN(c3ccccc3)CC2)c2ccc(N(C)C)cc2)c(OC)c1 (stereo unspecified)
 : -13%	/	/	/	-18%	-9%	/	1%
> CN(Cc1nc2ccc(F)cc2[nH]1)Cc1c(C(=O)N(C)C)nc2ccc(Cl)cn12
 : -5%	/	/	5%[46.1 µM]	2%	2%	1%[46.1 µM]	-1%
> NC(=S)NNC(=O)[C@@H]1CCCC[C@@H]1C(=O)O
 : -12%	-11%	-1.9%	-3%	-2%	4%	8%	8%
> c1ccc(Cn2ccnc2SCc2nnc(-c3ccccc3)o2)cc1
 : -19%	-15%	1.4%	22%	-89%	-4%	2%	/
> O=C(Nc1nc2ccccc2[nH]1)C1CCCC1
 : 23%	/	/	/	/	5%	-14%[46.1 µM]	5%
> CCOC(=O)c1c(NC(=O)c2cccs2)sc(C(=O)N2CCOCC2)c1C
 : 14%	/	/	3%	-6%	-18%	10%[46.1 µM]	/
> CC(C)(C)SCCNC(=O)/C=C/c1cccc([N+](=O)[O-])c1
 : 21%	2%	-2.6%	16%	2%	11%	?	-9%
> CCCNC(=O)CCc1nnc2ccc(N3CCC(C)CC3)nn12
 : 0%	/	/	5%	2%	-7%	-14%	2%
> O=S(=O)(NCc1ccc(Cl)cc1)c1ccc(-c2cnc(C3CC3)o2)cc1
 : -15%	-12%	-4.4%	0%[46.1 µM]	/	/	/	/
> O=C([C@H](Cc1ccc(O)cc1)n1cc(CCO)nn1)N1CCNCC1
 : -15%	/	/	/	3%	-7%	/	-1%
> COc1ccc(NC(=O)c2cc(-c3cc(OC)c(OC)c(OC)c3)nc3ccccc23)c(OC)c1
 : -2%	/	/	?	-17%	-16%	?	1%
> O=C(CSc1nc2ccccc2c2nc3ccccc3n12)NCc1ccco1
 : -12%	2%	-4.5%	-2%	2.8µM*	0%	15%	5%
> COc1ccccc1C(=O)NNC(=O)c1ccc(Br)o1
 : 23%	/	/	10%	-9%	-21%	14%	0%
> OC(CN1CCN(c2ccccn2)CC1)Cn1c2ccc(Cl)cc2c2cc(Cl)ccc21 (stereo unspecified)
 : -15%	?	-1.3%	-19%	-124%	?	?	-18%
> CN1c2ccc([N+](=O)[O-])cc2CC2(C(=O)NC(=O)NC2=O)C1c1ccccc1 (stereo unspecified)
 : 0%	-3%	-6.0%	?	23%	-1%	10%	17%
> O=C(Cc1ccccc1)NC1(O)C(=O)c2ccccc2C1=O
 : -7%	/	/	2%	-55%	-4%	-8%[46.1 µM]	-3%
> COc1cccc(/C=C2/Sc3ccc(C(=O)NCCN4CCCC4)cc3NC2=O)c1
 : -3%	/	/	/	-5%	2%	/	?
> CCN(CC)S(=O)(=O)c1ccc(C(=O)Nc2ccc(C(F)(F)F)n(C)c2=O)cc1
 : -12%	/	/	9%	-1%	-15%	18%[46.1 µM]	4%

Compound activity as filed in PubChem BioAssay.
